Bioassay records: PubChem BioAssay, National Center for Advancing Translational Sciences (NCATS)
TRPML1 inh: qHTS for Inhibitors of the Human Mucolipin Transient Receptor Potential 1 (TRPML1). Mucolipin-1 (Homo sapiens), Q9GZU1. TRPML1-inducible cells, Ca2+ dye fluorescence, FDSS; stronger effect = lower value; inhibition of EC80 agonist-evoked calcium signal. activity change, negative = inhibition, % (test concentration not listed). 390,000 tested, 0.02% active. AID 624415, 2012; in the data active means activity change below about -50%; inconclusive means about -30% to -50%; inactive means above about -30%;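 further: stimulus is agonist 54-4 at its EC80 concentration; on the % scale 0 is the no-effect control and ±100 the full control effect; compound concentration not given in the record; the text of the record puts the active cut at -80%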
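TRPML1-DL cells, Tet-induced overnight (~16 h, 37 °C) at 1,500 cells/well, were loaded with Ca8 no-wash dye plus quencher for 45-90 min at room temperature. Compounds were pinned during FDSS kinetic reading; agonist 54-4 at EC80 (4 uM final) then added.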
PINK1 modulator: A Quantitative High throughput Screen to Identify Chemical Modulators of PINK1 Expression | PINK1 immunofluorescence, high-content cytometry, 24 h | Potency, µM (series often up to 76.6 µM), for the others: at the highest dose activation (PINK1 increase), usual class: activators | 410,000 tested, 0.2% active | AID 624263, 2012; active = well fitted activation curve with a large enough effect; inconclusive = small, poorly fitted or top-dose-only effect; inactive = flat fitted curve, though single readings scatter; cell line not stated here;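 further: potency means the concentration at half of the fitted maximal effect; % of control where 0% means no effect; nearly all actives have a fitted effect of over 65% in size; a mitochondrial uncoupler was the plate control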
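PINK1 protein, normally rapidly degraded, was detected by immunofluorescence after 24 hour compound treatment of a stable cell line. Titration data (5 concentrations) came from laser-scanning cytometry, with CCCP-treated wells as controls.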
D2 PAM: Beta-Arrestin HTS for Positive Allosteric Modulators of the Human D2 Dopamine Receptor: Potentiators. AID 624464, 2012. potentiation, % (no concentration beside the values). D(2) dopamine receptor (Homo sapiens), P14416. DiscoveRx D2 beta-arrestin cells, luminescence, 90 min; 100% = 57 uM dopamine signal. 360,000 tested, 0.23% active; active = potentiation of 50% or more; inconclusive = 30% to 50%; inactive = 30% or less;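 further: compound concentration not given in the record; tested on top of an EC20 dose of dopamine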
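D2 cells co-treated with compound plus 50 nM dopamine (EC20) for 90 min at 37 deg C to detect potentiation. Beta-arrestin recruitment was read as enzyme-fragment luminescence after 1 h at ambient temperature. Full response was set by 57 uM dopamine.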
TRPML1 ag: qHTS for Agonists of the Human Mucolipin Transient Receptor Potential 1 (TRPML1); Mucolipin-1 (Homo sapiens), Q9GZU1; TRPML1-expressing cells, Ca2+ dye fluorescence, FDSS; host cell line not named in the record; reference of the full effect not given here; activation, % (concentration not given with the values); 410,000 tested, 0.12% active; AID 624414, 2012; in the data active = activation above about 50%; inconclusive = about 30% to 50%; inactive = below about 30%; further: 0% is about no effect; the text of the record puts the active cut at 80%
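Calcium fluorescence on an FDSS kinetic reader gave the read-out. Tet-induced TRPML1-DL cells were plated overnight, dye-loaded (Ca8 with quencher, 45-90 min, room temperature, dark), then read 110 s after compound addition, and again 110 s after 4uM final 54-4 (EC80).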
D2 agonist: Beta-Arrestin HTS for Positive Allosteric Modulators of the Human D2 Dopamine Receptor: Agonists. AID 624465, 2012. D(2) dopamine receptor (Homo sapiens), P14416. activation, % (no concentration beside the values). 360,000 tested, 0.084% active. DiscoveRx PathHunter D2 beta-arrestin, luminescence, 90 min; 100% = 57 uM dopamine signal; in the data active = activation above about 40%; inconclusive = about 15% to 40%; inactive = below about 15%; further: compound concentration not given in the record; the text of the record calls up to 30% inactive
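DiscoveRx PathHunter D2 beta-arrestin cells (2,100/well) attached overnight, then compound-stimulated 90 min at 37 C in HBSS/10 mM HEPES/0.1% Tween-20 buffer; beta-galactosidase complementation read by luminescence after 1 h at ambient temperature. Dopamine 57 uM final (EC100) as control.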
Six1-Eya2 inh: qHTS Assay for Inhibitors of the Six1/Eya2 Interaction. 360,000 tested, 0.56% active. Homeobox protein SIX1 (Homo sapiens) + Protein phosphatase EYA2 (Homo sapiens), …. AlphaScreen GST-Six1/His-Eya2 binding, biochemical; stronger effect = lower value; control for the full effect not named in the record. AID 651725, 2012. activity change, % (concentration not given with the values); in the data active = activity change below about -65%; inconclusive = about -30% to -65%; inactive = above about -30%; further: on the % scale 0 is the no-effect control and ±100 the full control effect
Target sequence (O00167 whole entry, looked up): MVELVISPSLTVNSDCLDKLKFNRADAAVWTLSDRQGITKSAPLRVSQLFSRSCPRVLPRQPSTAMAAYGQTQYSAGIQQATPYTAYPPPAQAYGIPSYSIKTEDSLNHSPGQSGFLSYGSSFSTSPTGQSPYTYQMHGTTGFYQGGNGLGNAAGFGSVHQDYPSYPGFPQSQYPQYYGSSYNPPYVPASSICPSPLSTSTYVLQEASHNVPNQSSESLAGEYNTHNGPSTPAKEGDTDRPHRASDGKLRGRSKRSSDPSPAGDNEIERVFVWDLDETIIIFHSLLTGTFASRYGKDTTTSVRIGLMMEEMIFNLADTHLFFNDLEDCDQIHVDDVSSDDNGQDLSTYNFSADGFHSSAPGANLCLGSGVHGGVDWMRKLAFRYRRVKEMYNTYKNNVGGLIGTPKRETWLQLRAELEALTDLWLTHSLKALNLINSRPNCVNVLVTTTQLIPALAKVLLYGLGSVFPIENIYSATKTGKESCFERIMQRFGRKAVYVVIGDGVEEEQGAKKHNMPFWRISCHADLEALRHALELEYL
Target sequence (Q15475 whole entry, looked up): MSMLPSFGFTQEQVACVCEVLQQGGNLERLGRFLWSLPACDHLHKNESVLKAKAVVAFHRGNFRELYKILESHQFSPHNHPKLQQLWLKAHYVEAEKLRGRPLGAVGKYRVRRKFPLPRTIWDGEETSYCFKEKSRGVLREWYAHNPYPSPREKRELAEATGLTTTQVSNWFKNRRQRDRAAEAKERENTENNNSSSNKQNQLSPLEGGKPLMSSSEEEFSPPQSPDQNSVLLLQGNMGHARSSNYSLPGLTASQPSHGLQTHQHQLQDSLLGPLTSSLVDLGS
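Six1/Eya2 binding was read as AlphaScreen signal after compounds were pinned into GST-Six1 plus His-tagged Eya2 (5X stock 250/500 nM) in pH 8.0 Tris/NaCl/TCEP buffer, beads added, then incubated 1 h, 37 C, dark.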
Numbers without * were called inactive; ? = inconclusive; . = not tested or not shown; & = joins results of further samples; [ ] = remark or other dose.

# | SMILES | Six1-Eya2 inh | PINK1 modulator | D2 PAM | TRPML1 ag | TRPML1 inh | D2 agonist
1 | CCc1ccccc1NC(=O)Cn1c(=O)n(CC(=O)NCCc2ccccc2)c(=O)c2ccccc21 | . | 1.2% | . | -0.3 | 6 | .
2 | COc1ccc(CCNC(=O)COC(=O)c2ccco2)cc1OC | 1 | 1.9% | 6 | -1.1 | -16 | -2.1
3 | C=CCCC(=O)N1CCC(n2nccc2NC(=O)CCCc2ccccc2)CC1 | 5 | -0.9% | 0 | -0.4 | 9 | -0.3
4 | CC1CCN(S(=O)(=O)c2ccc(NC(=O)C3CCCCC3C(=O)O)cc2)CC1 (stereo unspecified) | -16 | 1.2% | 6 | 2.5 | 6 | 6.6
5 | CCN(CC)CCCNC(=O)CC1Sc2ccccc2NC1=O (stereo unspecified) | 0 | 5.2% | -5 | -0.3 | -15 | 0.9
6 | CSc1nc(NCC(C)O)c2c3c(sc2n1)CN(C)CC3 (stereo unspecified) | 0 | 0.2% | -30 | 0.1 | -8 | -5.5
7 | CSc1ccccc1C(=O)N1CCN(c2ccc(F)cc2)CC1 | 0 | -0.7% | -13 | -0.1 | -18 | -0.5
8 | C#CCOCCOCCOCCNc1nc(N2CCN(C(=O)CCCCCCCCCCNC(=O)Cn3cc(CCCCCN)nn3)CC2)nc(N2CCN(C(=O)CCCCCCCCCCNC(=O)[C@H](CO)n3cc(CCCSC)nn3)CC2)n1 | -9 | 0.4% | -1 | -1.2 | -4 | 2.1
9 | COc1ccccc1NS(=O)(=O)c1cccc(NC(=O)c2cncc(Br)c2)c1 | -16 | -0.6% | -2 | 1.8 | -11 | 0.5
10 | Fc1ccc(C2Nc3cccc4cccc(c34)N2)cc1 | 0 | 0.1% | -1 | -0.4 | -7 | 8.0
11 | Cc1noc(/C=C/N(C)C)c1S(=O)(=O)N1CCN(c2ccc(F)cc2)CC1 | -10 | 0.5% | -1 | 0.5 | -13 | 1.0
12 | Cc1cc(SCCOc2ccc(Br)cc2)nc(N)n1 | 6 | -0.1% | 11 | -1.0 | 18 | -2.2
13 | COc1ccc(C(CNC(=O)c2cccc(S(=O)(=O)Nc3ccccc3OC)c2)N2CCOCC2)cc1 (stereo unspecified) | -7 | 0.3% | -1 | 0.8 | -10 | 0.0
14 | CN(C)c1ccc(/C=C(/C#N)C(=O)Nc2nc3c(s2)CCN(Cc2ccccc2)C3)cc1 | 10 | ? | -1 | 22 | 24 | 1.1
15 | COc1ccc(-c2cc3nc(NCc4ccc(C)cc4C)n(C)c(=O)c3s2)cc1OC | 0 | 9.1% | 2 | 0.8 | . | -1.5
16 | CC(C)(C)c1ccc(OCc2cc(=O)n3c4c(sc3n2)CCCC4)cc1 | . | 1.7% | . | -0.3 | -2 | .
17 | CCCNC(=O)C1CCN(C(=O)N2CC(C)Oc3ccccc32)CC1 (stereo unspecified) | . | -1.2% | . | -0.4 | -14 | .
18 | COc1ccc(/C=C/C(=O)N2CCN(c3ccccn3)CC2)c2ccccc12 | -28 | -0.6% | -17 | -0.5 | 14 | -0.3
19 | Cc1ccc(CN(C(=O)c2csnn2)C(C(=O)NC2CCCC2)c2cccnc2)cc1 (stereo unspecified) | 4 | 0.0% | -1 | -0.2 | -6 | -1.2
20 | C/C(=N\NC(=S)NCc1ccccc1)c1ccc(C(C)(C)C)cc1 | -15 | 14% | -43 | 3.2 | 32 | -13

Of the compounds above, 3 have an aryl thioether with sulfur outside any ring:
# | SMILES | Six1-Eya2 inh | PINK1 modulator | D2 PAM | TRPML1 ag | TRPML1 inh | D2 agonist
6 | CSc1nc(NCC(C)O)c2c3c(sc2n1)CN(C)CC3 (stereo unspecified) | 0 | 0.2% | -30 | 0.1 | -8 | -5.5
7 | CSc1ccccc1C(=O)N1CCN(c2ccc(F)cc2)CC1 | 0 | -0.7% | -13 | -0.1 | -18 | -0.5
12 | Cc1cc(SCCOc2ccc(Br)cc2)nc(N)n1 | 6 | -0.1% | 11 | -1.0 | 18 | -2.2

Next section
# | SMILES | Six1-Eya2 inh | PINK1 modulator | D2 PAM | TRPML1 ag | TRPML1 inh | D2 agonist
21 | O=C(COC(=O)C1C2CC3OC(=O)C1C3C2)Nc1cccc(C(F)(F)F)c1 (stereo unspecified) | 3 | 0.5% | -9 | 0.4 | -3 | -4.1
22 | O=C(Nc1cccc2ccccc12)c1ccc(Cn2cc(Cl)cn2)cc1 | -7 | -0.8% | -12 | 0.5 | 5 | -2.0
23 | CCOC(=O)CNC(=O)OC1CCN2Cc3ccccc3N=C12 (stereo unspecified) | 2 | -2.4% | -8 | -1.4 | 4 | -3.1
24 | Cc1ccc(-c2nc(SCC(=O)N(C)C3CCS(=O)(=O)C3)[nH]c2-c2ccc(C)cc2)cc1 (stereo unspecified) | -9 | 0.6%[38.3 µM] | -16 | 0.1 | 4 | 1.6
25 | COc1cc(S(=O)(=O)N(Cc2cccnc2)Cc2ccco2)ccc1-n1cnnn1 | -2 | . | -19 | -0.4 | -3 | -0.5
26 | O=C(CCn1c(=S)oc2ccccc21)NCCC1=CCCCC1 | -18 | 9.9% | -15 | 0.8 | 2 | 0.2
27 | C/C(=N/NC(=O)c1ccccn1)c1ccncc1 | ? | 2.2% | -10 | -0.6 | -11 | -2.0
28 | Cc1cccc(C(=O)NCC(=O)OCc2cc(=O)n3nc(C4CCCCC4)sc3n2)c1 | . | 0.0% | . | -1.1 | -3 | .
29 | Cc1cc(C)n(CC(C)C(=O)O)n1 (stereo unspecified) | 5 | 1.2% | -2 | 0.9 | -9 | -0.6
30 | CCOc1ccc(CCNS(=O)(=O)c2cc3c(cc2C)NC(=O)CO3)cc1OCC | 2 | 1.9% | -5 | -0.6 | -1 | -4.8
31 | O=C(Nc1ccc(Cl)cc1)C1CCN(C(=O)c2cccs2)CC1 | 1 | 1.8% | -12 | 0.3 | -10 | -1.0
32 | Cc1nnc(SCC(=O)Nc2ccc(O)cc2)c2ccccc12 | 3 | -0.4% | 3 | 1.6 | 12 | 3.7
33 | COc1cccc(-c2cn3c(n2)sc2cc(C(=O)NC4CCCCCC4)ccc23)c1 | . | 1.9% | . | 1.5 | 20 | .
34 | COc1ccc(NC(=O)c2sccc2SCC#N)cc1 | -2 | 5.2%[38.3 µM] | -4 | 0.1 | 21 | -1.4
35 | OC1(c2ccc(Cl)cc2)CCN(Cc2cn[nH]c2-c2ccccc2)CC1 | 1 | 1.0% | -14 | 1.1 | -7 | 2.9
36 | CC(=O)N1CCC(N(CCCOC(C)C)C(=O)Nc2ccc(C)c(C)c2)CC1 | -2 | 1.4% | -14 | 0.1&0.9 | 26&-11 | -2.3
37 | CCCOC(=O)C1C2C=CC(C3CC23)C1C(=O)OCC(=O)c1ccccc1 (stereo unspecified) | 14 | 0.2% | -9 | 1.1 | 9 | -1.1
38 | CCOc1ccccc1NC(=O)c1ccc(F)c(S(=O)(=O)N2CCC3(CC2)OCCO3)c1 | -4 | -0.6%[38.3 µM] | -1 | 0.5 | -4 | -1.2
39 | Cn1c(C23CC4CC(CC(C4)C2)C3)n[nH]c1=S | 5 | -1.6% | -14 | 0.1 | -2 | -7.0
40 | CCOc1cc(S(=O)(=O)NC2CCCC2)ccc1Cl | 0 | 14% | -16 | 1.0 | 8 | 1.0
41 | CCOC(=O)c1cc(C(=O)Nc2cccc(C)c2)nn1C | 5 | 16%[38.3 µM] | -9 | 0.0 | 14 | -1.4
42 | Cc1sc2ncnc(SC(C)C#N)c2c1C (stereo unspecified) | 2 | -2.2%[38.3 µM] | -7 | 0.9 | 3 | -0.3
43 | O=C(CN1CCCC1)Nc1ccc(F)cc1 | 1 | 2.4% | -7 | 0.4 | 0 | -0.7
44 | Cc1ccc(C)c(CSc2nc3c([nH]c4ccccc43)c(=O)n2C)c1 | . | 0.6% | . | 0.1 | -22 | .
45 | CCCCCCC(=O)N(O)C1CC(=O)N(c2ccc(Br)cc2)C1=O (stereo unspecified) | -1 | 3.2%[38.3 µM] | -10 | -0.3 | 6 | -1.6
46 | CC(=O)Nc1ccc(Sc2ncccc2C(=O)Nc2ccc(OC(F)(F)F)cc2)cn1 | -1 | 12% | -8 | 52* | -7 | -2.0
47 | COCCNC(=O)C(C)OC(=O)c1cc2occc2n1C (stereo unspecified) | 0 | . | 4 | 0.0 | 2 | -2.4
48 | COC(=O)C1(C)NC(c2cccc(C)c2)C2C(=O)N(c3ccc(F)cc3)C(=O)C21 (stereo unspecified) | 22 | 2.7% | -1 | -0.4 | -5 | -2.1
49 | [O-][n+]1cccc2c(Br)cc(Br)c(O)c21 | -7 | -1.0% | -3 | -0.1 | 2 | 3.7
50 | CCCCn1nnnc1C1(C)CCC(=O)N1C1CC1 (stereo unspecified) | 0 | 1.4% | . | -0.4 | . | .
51 | O=C(O)COc1ccc2c(c1)O/C(=C\c1ccco1)C2=O | ? | 0.9% | -20 | 0.9 | 2 | 3.6
52 | CN(Cc1ccccc1)S(=O)(=O)c1ccc(Cl)c(C(=O)NCCCN2CCOCC2)c1 | 5 | 1.1% | -5 | 0.1 | -3 | -1.8
53 | COc1cc2ccccc2cc1C(=O)Nc1ccc(N2CCN(C(=O)C(C)C)CC2)cc1 | 0 | 1.2% | -4 | -0.7 | 8 | 1.9
54 | S=C(NCc1cccnc1)Nc1ccc2c(c1)OCO2 | 1 | -0.7% | -10 | 1.3 | 5 | -1.2
55 | CC(C)OC(=O)CN1C(=O)C(=O)c2ccccc21 | -8 | 4.6%[38.3 µM] | -46 | 0.2 | -11 | -16
56 | CC(C)c1csc(CN2CCC(C(=O)Nc3cccc(-c4ccco4)c3)CC2)n1 | -25 | 0.7% | -12 | -0.6 | 17 | -1.4
57 | Cc1ccc(NC(=O)CC2COc3ccccc3O2)cc1 (stereo unspecified) | 3 | 2.1% | -7 | -0.4 | -2 | -4.2
58 | NNC(=O)c1cn2ccccc2n1 | -1 | 0.8% | -5 | -0.3 | 11 | -1.9
59 | Cc1cnc(C(=O)OCC(=O)NC2CCCCCC2)cn1 | -2 | 2.1% | -4 | 0.0 | 10 | 2.1
60 | Cc1ccc(NC(=O)C(=O)C2C(=O)Nc3ccccc32)cc1 (stereo unspecified) | -3 | -0.4% | -3 | -0.8 | -1 | -0.4
61 | C[C@@H]1CN([C@H](C)CO)C(=O)Cc2cc(NC(=O)Nc3ccccc3)ccc2O[C@@H]1CN(C)C(=O)Nc1ccc2c(c1)OCO2 | -19 | 0.5% | -4 | -0.4 | -7 | -0.4
